Bm FixLJ act = increases Burkholderia fixLJ two-component signaling; B. multivorans fixK-promoter GFP reporter, 18 h; stronger effect = higher value; AID 1918990; z-score (test concentration not listed); hit rate 0.3% among 29,000;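 active = replicate mean overnight rise in green fluorescent reporter signal, 3 or more SD over negative controls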;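 note: score is relative to vehicle wells of the plate; 300 nL library stock went into each well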
Numbers without * were called inactive; & = joins results of further samples. A portion of the library. The share of hits here may be higher or lower than overall.

Start of the data: the first four compounds as a preview:
SMILES | Bm FixLJ act
CCCCC1C(=O)N(c2ccccc2)N(c2ccccc2)C1=O | -1.3&-0.52
CCCCCCc1ccc(O)cc1O | 1.1
Cc1cccc(C)c1NC(=O)C1CCCCN1C (stereo not given) | -1.5
CC(=O)Nc1ccc(O)cc1 | -0.84

The whole of this part, repeating the preview:
SMILES | Bm FixLJ act
CCCCC1C(=O)N(c2ccccc2)N(c2ccccc2)C1=O | -1.3&-0.52
CCCCCCc1ccc(O)cc1O | 1.1
Cc1cccc(C)c1NC(=O)C1CCCCN1C (stereo not given) | -1.5
CC(=O)Nc1ccc(O)cc1 | -0.84
COc1ccccc1OCCNCC(O)COc1cccc2[nH]c3ccccc3c12 (stereo not given) | -1.5&-1.1
C=C1c2cccc(O)c2C(O)=C2C(=O)[C@]3(O)C(O)=C(C(N)=O)C(=O)[C@@H](N(C)C)[C@@H]3[C@@H](O)[C@H]12 | -1.8
C#C[C@]1(O)CCC2C3CCC4=CC(=O)CC[C@@H]4C3CC[C@@]21CC (stereo not given in full) | 0.4
CC(=O)Nc1ccccc1 | 0.29
Nc1c2ccccc2nc2ccccc12 (tested in a mixture with another compound) | -0.92
COc1ccc(OCC(=O)Nc2cc(-c3nc4ccccc4s3)ccc2C)cc1 | 0.54
Cc1ccccc1Cc1c(C)nc2c(-c3ccccc3)c(C)[nH]n2c1=O | -1.3
Cc1cccc2nc(-c3ccccn3)c(Nc3ccccc3)n12 | -1.1
Cc1ccc(NC(=O)Cn2c(=O)n(CCC(=O)N3CCc4ccccc4C3)c(=O)c3ccccc32)c(C)c1 | -1.6
COc1ccc(CN2CCN(C(c3ccc(F)cc3)c3ccc(F)cc3)CC2)c(OC)c1OC | -1.3
NC(N)=NC(=O)Cc1c(Cl)cccc1Cl | -1
O=C(Nc1ccc(C(=O)O)c(O)c1)c1ccccc1 | -1.9
NC(=NCc1ccccc1)NC(=O)c1nc(Cl)c(N)nc1N | -1.2
CC(C)(CO)C(O)C(=O)NCCCO (stereo not given) | -1.5
CCCCCC(=O)O[C@]1(C(C)=O)CCC2C3CCC4=CC(=O)CC[C@]4(C)C3CC[C@@]21C (stereo not given in full) | 0.19
Nc1c2c(nc3ccccc13)CCCC2O (stereo not given) | -1.1
CCOc1ccc(NC(=O)Cn2cc(C(=O)c3cccs3)c3ccccc32)cc1 | 0.83
Cc1ccnc(NC(c2cccc(O)c2)c2ccc3ccc(C)nc3c2O)c1 (stereo not given) | -0.05
Cc1cc(C)cc(OCC2CNC(=O)O2)c1 (stereo not given) | -0.36
Nc1ncnc2nc[nH]c12 | -0.14
CCn1cc(C(=O)O)c(=O)c2cc(F)c(N3CCNCC3)nc21 | -1.5&-2.3

Taken from above.
Entry for `CCn1cc(C(=O)O)c(=O)c2cc(F)c(N3CCNCC3)nc21` in Bm FixLJ act: -1.5&-2.3
Entry for `Cc1cc(C)cc(OCC2CNC(=O)O2)c1` (stereo not given) in Bm FixLJ act: -0.36

5 structures out of the list, sorted by number of heavy atoms, ascending.
SMILES | Bm FixLJ act
Nc1ncnc2nc[nH]c12 | -0.14
CC(C)(CO)C(O)C(=O)NCCCO (stereo not given) | -1.5
Nc1c2c(nc3ccccc13)CCCC2O (stereo not given) | -1.1
CCn1cc(C(=O)O)c(=O)c2cc(F)c(N3CCNCC3)nc21 | -1.5&-2.3
CCCCCC(=O)O[C@]1(C(C)=O)CCC2C3CCC4=CC(=O)CC[C@]4(C)C3CC[C@@]21C (stereo not given in full) | 0.19
